Prx2 Sm inh = Schistosoma mansoni Prx2 inhibition | S. mansoni Prx2 activity coupled to TGR/GSH (TGR is thioredoxin glutathione reductase), NADPH fluorescence loss, qHTS; some inactives read as strong as hits | Potency, µM | 0.07% of 65,000 active; active means full or partial inhibition curve with a strong effect at the top dose; inconclusive means weaker partial or single-point curve; inactive means no accepted curve; also: series up to 57 µM; many of its hits are not listed in these tables
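Enzyme mix: 100 uM NADPH, 25 nM TGR, 700 uM GSH, 50 nM Prx2 in 100 mM phosphate pH 7.4, 10 mM EDTA, 0.01% Tween-20. 15 min RT with compound; NADPH/GSH added, H2O2 starts reaction; NADPH fluorescence read 8 min.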
LT uptake inh = blocks cellular internalization of anthrax lethal toxin | Cells, anthrax lethal toxin internalization, FRET ratio (460/530) | Potency, µM (highest dose often 40 µM), inactives show at the highest dose activity change, negative = inhibition, usual class: inhibitors | 0.67% of 70,000 active; active = well fitted falling ratio curve with the 530 nm signal flat; inconclusive = other ratio curves, or a change in one channel alone; inactive = flat curves in the ratio and both channels; the % refers to the ratio; also: % is scaled to controls: 0 for no effect and ±100 for the full control effect; nearly all actives have a fitted effect of over 50% in size; tested in ME-180 cells; beta-lactamase reporter
Active calls of the source: *; u = inconclusive; x = not tested or not shown; & = joins results of further samples; [ ] = dose if it differs, or a comment. Potency is read from the fitted curve at half-maximal effect. This is a subset, so the mix of outcomes need not match the whole.

Every second line gives: Prx2 Sm inh	LT uptake inh
CC(C)C(c1nnnn1Cc1ccccc1)N1CCC(C(N)=O)CC1 (centres undefined)
  >57	5%
CN(C)CCSc1nc(N)c2c3c(sc2n1)COC(C)(C)C3
  >57	x
CC[C@@H]1[C@@H]2Cc3ccc(O)cc3[C@@]1(CC)CCN2C
  >57	u
Cc1ccc(S(=O)(=O)N[C@H](C(=O)N2CCC(C(=O)NCC(=O)O)CC2)C(C)C)cc1
  >57	-19%
O=S(=O)(c1ccccc1)N1CCN(C2CCCCCCC2)CC1
  >57	-9%
CN1CCN(c2ncc3nc(-c4ccc(Cl)cc4)c(=O)n(C4CC4)c3n2)CC1
  >57	u
CCOC(=O)N1CCN(C(=O)COc2cc(=O)n(CC)c3ccccc23)CC1
  >57	7%
O=C1c2ccccc2C(=O)N1CCN1CCOCC1
  >57	-8%
COc1ccccc1C1NC(=O)NC(C)=C1C(C)=O (centres undefined)
  >57	-14%
O=C(Nc1ccccc1C(=O)N1CCCCC1)C1CCCCC1
  >57	-6%
Cc1cccc(Cn2cnc3c(nnn3Cc3ccccc3F)c2=O)c1
  >57	-7%
O=C(c1ccc(Br)cc1)C1CCc2occc2C1=O (centres undefined)
  >57	-6%
CCOC(=O)N1CCC(N2CCN(S(=O)(=O)CC)CC2)CC1
  >57	-6%
CC(C)NS(=O)(=O)c1ccc(OCC(=O)N2CCN(Cc3ccccc3)CC2)cc1
  >57	7%
CCC(SC1=Nc2ccccc2C2=NC(CC(C)C)C(=O)N12)C(=O)Nc1ccc2c(c1)OCO2 (centres undefined)
  x	18%
CCn1c(SCC(=O)Nc2cc(C)on2)nnc1-c1ccc(S(=O)(=O)N2CCCC2)cc1
  >57	-7%
COCCOC(=O)C1=C(C)NC(=O)NC1c1c(OC)ncnc1OC (centres undefined)
  >57	-9%
Cc1c(C(=O)N2CCOCC2)sc(NC(=O)c2ccc3c(c2)OCO3)c1C#N
  >57	-7%
CCOc1ccc(NC(=O)CSc2nnc(-c3ccccn3)n2N)cc1
  >57	-29%
COC(=O)c1ccccc1NC(=O)NCc1ccco1
  >57	12%

A section of the results above, as a working copy:
Every second line gives: Prx2 Sm inh	LT uptake inh
CCOc1ccc(NC(=O)CSc2nnc(-c3ccccn3)n2N)cc1
  >57	-29%
COC(=O)c1ccccc1NC(=O)NCc1ccco1
  >57	12%

Carrying on:
Every second line gives: Prx2 Sm inh	LT uptake inh
O=C(CN1CCN(c2ccccn2)CC1)Nc1cc(C(F)(F)F)ccc1Cl
  >57	-29%
CC(=O)OCC1C2CC[C@H]3C(OCc4ccc(F)cc4C(F)(F)F)OC[C@]4(C)[C@H]3C2=C(CN4C(=O)OC(C)(C)C)[C@H](C)C1COC(C)=O (some centres undefined)
  >57	u
CC(=O)c1ccc(N2CCN(C(=O)CCCn3c(=S)[nH]c4cc5c(cc4c3=O)OCO5)CC2)cc1
  >57	u
COc1cc(Cn2c(C(=O)O)cc3sccc32)cc(OC)c1OC
  >57	21%
CC(C)C1CC(c2csc(N)n2)CCO1 (centres undefined)
  >57	0%
O=C(c1ccco1)N1CCN(Cc2ccccc2C(F)(F)F)CC1
  x	-19%
COc1ccc(N(CC(=O)N2CCCCC2)S(=O)(=O)c2c(C)nn(C)c2C)cc1
  >57	11%
Cn1c(=O)oc2cc(S(=O)(=O)N3CCN(c4ccccn4)CC3)ccc21
  >57	5%
CCOC(=O)c1cccc(NC(=O)CSc2nnc(COc3ccccc3C)o2)c1
  >57	7%
Cc1cc(C)c(S(=O)(=O)N(C)CC(=O)NC2CCCC2)c(C)c1
  >57	u
COc1ccc(OC)c(NC(=O)C2COc3ccccc3O2)c1 (centres undefined)
  x	13µM*
Cc1c(NC(=O)C(C)OC(=O)c2cc3c4ccccc4n(C)c3s2)c(=O)n(-c2ccccc2)n1C (centres undefined)
  >57	u
Cc1nnc2n(Cc3ccccc3)c(=O)c3c4c(sc3n12)CCCC4
  >57	-18%
N#C/C(=C(/O)COC(=O)c1ccc2c(c1)OCCO2)c1nc2ccccc2[nH]1
  >57	-12%
C#CCSc1nsc(SCC#C)c1C#N
  >57	u
CC(C)(C)NC(=O)c1cc(NC(=O)c2ccco2)cc(NC(=O)c2ccco2)c1
  x	-8%
O=C(CSc1nnc2ccccn12)N1CCOCC1
  >57	0%
COc1ccc(S(=O)(=O)N2CCn3c2nc2ccccc23)cc1
  >57	1%
O=c1nc(N2CCOCC2)nc2n1CCO2
  >57	-2%
CN(C)Cc1ccccc1-c1cncnc1Nc1ccc(F)cc1
  >57	-7%
O=C(Nc1ccccc1Oc1ccccc1)c1cnccn1
  >57	12%
COc1cc(C(c2nnnn2C2CCCC2)N2CCN(C)CC2)cc(OC)c1OC (centres undefined)
  >57	8%
Cc1ccc(CN(Cc2cc3cc(C)ccc3[nH]c2=O)C(=O)N2CCOCC2)cc1
  >57	-10%
Cc1ccc(CNc2ccc(N3CCOCC3)c(C(=O)O)c2)s1
  >57	7%
COc1ccc(Cc2noc(-c3ccc(C)cc3)n2)cc1
  >57	u
COC1(OC)N=C(N)C2(C#N)C(c3ccc(F)cc3)C12C#N (centres undefined)
  >57	4%
O=c1cc(CSc2ccc(S(=O)(=O)N3CCCCC3)cn2)nc2sccn12
  >57	4%
CCC(=NC1CCN(Cc2ccccc2)CC1)c1c(O)[nH]c(=O)[nH]c1=O
  >57	u
CCC(CC)c1nnc(NS(=O)(=O)Cc2ccccc2)s1
  >57	-26%
COc1ccc(C2CC(=O)C(C=NCCN3CCN(C(C)=O)CC3)=C(O)C2)cc1OC (centres undefined)
  x	-4%
CCCCn1c(C)nc2c(=O)n(C)c(=O)[nH]c21
  >57	u
CC(C)NC(=O)N1CCCC2(CCN(C(=O)c3ccco3)CC2)C1
  >57	u
CC(=O)NC1N=C(C)N(c2ccccc2)C1=O (centres undefined)
  >57	6%
CC(=O)c1cc2c(cc1NC(=O)c1cc(C)nn1-c1ccccc1)OCO2
  >57	u
O=C(COC(=O)CCc1c[nH]c(=O)[nH]1)Nc1ccccc1Cl
  >57	-3%
CCCN1CN(Cc2ccccc2)CC2=C1CC(C)(C)CC2=O
  >57	u
COc1ccc(OC)c(C2CC(=O)c3c([nH]c(C(=O)OCC4CCCO4)c3C)C2)c1 (centres undefined)
  >57	u
CCC(=O)Nc1nnc(Sc2ccc(N(C)C)cc2)s1
  x	1%
CC(C)C(=O)NC(C)C(c1cccs1)N1CCN(C)CC1 (centres undefined)
  >57	-12%
O=C(CCSc1nnc2scc(-c3ccccc3)n12)Nc1nc(-c2ccccc2)ns1
  >57	12%
C[C@@H]1c2ccccc2CN1CC1=NCCN1
  >57	-3%
Clc1ccccc1CSc1nnc(-c2cccnc2)n1Cc1ccco1
  >57	u
CCOC(=O)C1=C(C)NC(=O)NC1c1ccc(NC(C)=O)cc1 (centres undefined)
  >57	8%
O=C(Nc1ccon1)C1CCN(S(=O)(=O)c2cccs2)CC1
  >57	-12%
Cc1cnc(CNc2ncncc2-c2ccccc2C(F)(F)F)cn1
  >57	2%
Cc1oc2c(CN3CCCC3)c(O)ccc2c(=O)c1Oc1ccccc1Br
  >57	2%
Cc1cc(S(=O)(=O)Nc2c(C(=O)O)[nH]c3ccccc23)ccc1F
  >57	-8%
CC1(C)NC(=O)N(CCCCOc2cccc(C(F)(F)F)c2)C1=O
  >57	-18%
O=C(NCc1ccc(F)cc1)c1cnc2sccn2c1=O
  >57	13%
C[C@@H]1C=CCC(=O)OC[C@H](C)C(=O)OC[C@H]2O[C@H]1C=C[C@@H]2O
  x	2%[8 µM]
CC(C)[C@@]1(NC(=O)[C@@H]2C[C@H]3c4cccc5[nH]cc(c45)C[C@@H]3N(C)C2)O[C@@]2(O)[C@H]3CCCN3C(=O)[C@H](Cc3ccccc3)N2C1=O
  >57&>57	u
Cc1cc(C2C(=O)C(C(=O)c3ccc(Cl)cc3)C(=O)CC2(C)C)on1 (centres undefined)
  >57	1%
N#CC(C(=O)C1CCCCC1)c1nc2ccccc2[nH]1 (centres undefined)
  >57	-2%
O=S1(=O)CCN(Cc2ccccn2)CC1
  >57	-7%[8 µM]
CC1(C)CC(=O)N(CC(=O)NCc2ccc(F)cc2)c2ccccc2S1(=O)=O
  >57	-4%
CCc1nc(N)c(C#N)c(-c2ccc(O)c(OC)c2)c1C
  >57	-6%
C=CCn1c(SC(C)C(=O)NC2(C#N)CCCCC2)nnc1-c1ccc(OC)cc1 (centres undefined)
  >57	11%
Cc1nc2c(c(=O)n1CCC1=CCCCC1)c1nc3ccccc3nc1n2/N=C/c1ccco1
  >57	x
CO[C@@H]1COC(=O)C/C=C\[C@H](C)[C@H](OC)COC(=O)[C@H]2CCCN2C(=O)C/C=C\[C@H]1C
  x	-11%[8 µM]
CC(=O)NCCc1ccc(O)c(O)c1
  >57	u

(listing goes on)
Every second line gives: Prx2 Sm inh	LT uptake inh
N#CC(Cl)Cl
  x	-5%
O=C(O)c1cccc(S(=O)(=O)Nc2ccc3oc(=O)sc3c2)c1
  >57	u
COc1ccc2c(=O)c3c(=O)n(Cc4ccco4)c(-c4cc(OC)c(OC)c(OC)c4)nc3oc2c1
  >57	16%
Oc1ccc(Cl)cc1CNc1ccc(Br)cn1
  >57	1%
Cc1cc(NC(=O)CSc2nnc3c(C)cc4c(C)ccc(C)c4n23)no1
  >57	-27%
COc1ccc(NC(=O)c2ccc(Cl)c(S(=O)(=O)N3CCc4ccccc4C3)c2)cn1
  >57	u
COc1ccc(C(=O)Nc2ccccc2C(=O)NCCCn2ccnc2)cc1
  x	21%
COC(=O)Cc1cc(=O)[nH]c(Nc2nc3ccccc3o2)n1
  x	-21%
COCCNC(=O)CN1CCN(Cc2cccc(Cl)c2)C1=O
  >57	-1%
CCc1ccc(OCC(=O)NCc2ccco2)c(Br)c1
  >57	-16%
CCOC(=O)c1oc2nc(C(C)C)c3c(c2c1N)CC(C)(C)OC3
  >57	-12%
CSc1nc2cc(F)c(F)cc2n1C
  >57	0%
N#Cc1c(N)oc(-c2ccc3c(c2)OCO3)c1-c1ccc2c(c1)OCO2
  >57	5%
Cc1nc(NC2CCCCC2)c2nc(-c3ccccc3)n(CCCN3CCOCC3)c2n1
  x	-9%
COc1ccccc1NC(=O)NC(N)=O
  >57	-2%
O=C(c1ccc(Cn2c(=O)[nH]c3ccccc3c2=O)cc1)N1CCN(c2ccccc2)CC1
  >57	12%
O=C(Nc1ccc2c(c1)OCO2)C1(S(=O)(=O)c2ccc(Cl)cc2)CC1
  >57	u
CCc1c(C)sc(NC(=O)c2cc(C)no2)c1C#N
  >57	-7%
C[N+](C)(C)C/C=C1/COCO1
  >57	4%
COc1cccc(Cn2c(=O)cnc3cnc(OCc4ccccc4)nc32)c1
  >57	-18%
c1ccc(C2NCCn3cccc32)cc1 (centres undefined)
  x	4%
CCCc1nnc(NC(=O)c2ccncc2)s1
  x	1%
CNC(=O)[C@H]1O[C@H](n2cnc3c(NCc4cccc(I)c4)ncnc32)[C@@H](O)[C@@H]1O
  >57	u
Cn1c(=O)c2c(nc(OC/C=C/c3ccccc3)n2C)n(C)c1=O
  >57	-19%
CC(C)(C)CC(=O)N1CCC(c2nc3c(nnn3Cc3c(F)cccc3Cl)c(=O)[nH]2)CC1
  >57	u
O=S1(=O)NC2CCCCCN2c2ccc(F)cc21 (centres undefined)
  >57	2%
CCN1C(=O)[C@H]2[C@H]3[C@H](O)[C@H](O)C/C(=N/O[C@@H]4O[C@H](COC(C)=O)[C@@H](OC(C)=O)[C@H](OC(C)=O)[C@H]4OC(C)=O)[C@@H]3CC[C@@H]2C1=O
  x	9%[8 µM]
Cc1ccc2cc3c(NC(=O)C(C)C)nn(C)c3nc2c1
  >57	5%
O=C(c1cc(C(F)(F)F)cc(C(F)(F)F)c1)N1CCC2(CCN(Cc3ccncc3)CC2)CC1
  >57	u
COc1ccc(C2OC(=O)CC2C(=O)N2CCN(c3cc(Cl)ccc3C)CC2)cc1OC (centres undefined)
  >57	-16%
COc1ccccc1Cn1c(=S)[nH]c2cc(C(=O)NCCN3CCOCC3)ccc2c1=O
  >57	-18%
CC(NS(=O)(=O)c1ccc(F)cc1)C(c1cccs1)N1CCN(C)CC1 (centres undefined)
  >57	x
CC1CCCN(c2ccc(C(=O)NCC3CCCO3)cn2)C1 (centres undefined)
  >57	-6%
CCN1C(=Nc2ccc(Cl)cc2)SC/C1=C\C(=O)OC
  >57	-5%
O=C(CSc1ccc2nnc(-c3ccc(F)cc3)n2n1)NCc1ccco1
  >57	-5%
O=C(Cn1ccc2ccccc2c1=O)NCCC(=O)Nc1cccnc1
  >57	8%
O=c1[nH]c(CN2CCN(CCO)CC2)nc2ccccc12
  >57	-5%
CCNC(=O)C1CCCN1S(=O)(=O)c1ccc(OC)cc1 (centres undefined)
  >57	5%
COCCNS(=O)(=O)c1cc(-c2nn(C)c(=O)c3ccccc23)ccc1C
  >57	-1%

High-throughput results deposited in PubChem BioAssay by National Center for Advancing Translational Sciences (NCATS).
